VACV Venus inh: qHTS for Stage-Specific Inhibitors of Vaccinia Orthopoxvirus: Venus Reporter Primary qHTS; Potency, µM (top dose mostly 36.5 µM), without a hit: at the top dose activity change, negative = inhibition, usual class: inhibitors; Vaccinia virus Venus reporter expression, fluorescence; hit rate 0.46% among 330,000; active means well fitted inhibition curve with a large enough effect; inconclusive means small, poorly fitted or top-dose-only effect; inactive means no such curve, though single readings can be large or run the other way; tested in A549 cells; further: nearly all actives have a fitted effect of over 30% in size; inactives centre near -10
Vaccinia mCherry: qHTS for Stage-Specific Inhibitors of Vaccinia Orthopoxvirus: mCherry Reporter Primary qHTS. Vaccinia virus mCherry reporter infection, fluorescence; about a quarter of the inactives have no number. Potency, µM (series often up to 36.5 µM), without a hit: at the highest dose activity change, negative = inhibition, hits mostly inhibitors. hit rate 0.63% among 310,000; active = well fitted inhibition curve with a large enough effect; inconclusive = small, poorly fitted or top-dose-only effect; inactive = no such curve, though single readings can be large or run the other way; tested in A549 cells; further: nearly all actives have a fitted effect of over 35% in size; inactives centre near -10
Starred values were filed as active, the others as inactive; i = inactive; ? = inconclusive; nt = not tested or not shown; & = joins results of further samples; [ ] = dose if it differs, or a comment. On the % scale 0 is the no-effect control and ±100 the full control effect; potency means the concentration at half of the fitted maximal effect. Rows were taken by chance, and some 0.88% of all compounds hit somewhere here.

| SMILES | VACV Venus inh | Vaccinia mCherry |
| --- | --- | --- |
| CCCN(CCC)CCNC(=O)C1CCCN(S(=O)(=O)c2cccc3nsnc23)C1 (centres undefined) | -13.8% | -7.2% |
| CC1CCCCN1S(=O)(=O)c1cnc(Cl)c(Br)c1 (centres undefined) | -16.5% | i |
| O=c1c(Br)c(NCc2ccccc2)cnn1-c1ccc(F)cc1 | -9.7% | i |
| N#Cc1nn(-c2c(Cl)cc(C(F)(F)F)cc2Cl)c(N)c1S(=O)C(F)(F)F (centres undefined) | -6.5%&-9.8% | -13.6% |
| O=C(Cn1c(=O)n(Cc2ccco2)c(=O)c2oc3ccccc3c21)Nc1ccc(F)c(Cl)c1 | -12.1% | -2.6% |
| CC(NC(=O)c1ccc([N+](=O)[O-])o1)C1CC2CCC1C2 (centres undefined) | -21.5% | ? |
| CCOC(=O)/C=C1\CN(CCC(C)C)S(=O)(=O)c2ccccc21 | -12.7% | i |
| CN1C(=O)C(Cc2ccsc2)C(=O)N(C)C1=O | -4.2% | nt |
| Cc1ccc(SCCNC(=O)c2ccccc2C)cc1 | ? | nt |
| C=CCn1cnc2c(nnn2-c2ccc(C)c(C)c2)c1=O | -12.9% | i |
| COc1ccc(-c2nc3ccccc3n(CC(C)C)c2=O)cc1 | -17.2% | i |
| O=C(Nc1ccc(Cl)cc1)OCc1cncs1 | ? | nt |
| C(=Cc1nc2ccccc2o1)c1ccc2c(c1)OCO2 | -27.4% | -10.9% |
| NC(=O)C1=C[C@H](c2ccc3c(c2)OCO3)C[C@H](OCc2ccc(CO)cc2)O1 | -22.6% | i |
| COc1ccc(CCN(Cc2cccs2)S(=O)(=O)c2ccc(S(=O)(=O)N(C)C3CCCCC3)cc2)cc1OC | -11.5% | i |
| CC(=O)Nc1ccc(NC(=O)c2cc(=O)c3ccc(C)cc3o2)cc1 | -1.8% | -13.0% |
| O=C(NCCCc1ccccc1)c1ccc(CS(=O)Cc2ccccc2Cl)o1 (centres undefined) | -12.3% | i |
| CCOC(=O)/C=C/[C@H]1CC2(CCO1)SCCCS2 | -8.3% | -30.0% |
| Cc1ccc(S(=O)(=O)c2nc(-c3ccc(F)cc3)oc2SCC(=O)NC2CCCCC2)cc1 | 0.6% | -7.8% |
| CCOC(=O)c1cc(=O)c2c([N+](=O)[O-])ccc(OC)c2o1 | -11.8% | -11.1% |
| O=C(N/N=C/c1ccc(OC(F)F)cc1)C1=COCCO1 | 12.6% | -1.7% |
| COc1ccc(OC)c(CCNC(=O)c2cnn(-c3ccccc3)c2C2CCN(C(=O)OC(C)(C)C)CC2)c1 | -8.1% | i |
| O=C(CC1(O)C(=O)N(CCc2ccccc2)c2ccc(Br)cc21)c1ccc(F)cc1 (centres undefined) | -16.2% | -16.4% |
| COc1cc(/C=C/c2noc(-c3ccccc3O)n2)cc(OC)c1OC | -17.0% | -14.8% |
| O=C(Cc1ccccc1)Nc1ccc(S(=O)(=O)N2CCOCC2)cc1 | -2.7% | -9.4% |
| O=C(O)c1cccc(S(=O)(=O)N2CCN(c3ccccn3)CC2)c1 | 0.0% | i |
| CCCCc1ccc(S(=O)(=O)NC(=O)C2(C)CCN2C(=O)CCc2cccs2)cc1 (centres undefined) | -15.5% | i |
| C[C@@H]1COc2cc(N3CCC[C@@H]3CO)ccc2S(=O)(=O)N1 | -2.0% | -0.7% |
| CCc1ccc(CNCCc2ccccc2F)cc1 | ? | -28.0% |
| CCCn1c(=O)sc2cc(NC(=O)COc3ccc(Cl)cc3)ccc21 | -6.6% | -14.2% |
| CC(=O)Nc1cccc(N2C(=O)CC(N3CCC(C(=O)N4CCCCC4)CC3)C2=O)c1 (centres undefined) | -9.8% | nt |
| COCCCNC(=O)Cn1cc2c(n1)CCC(C)C2 (centres undefined) | -1.1% | -2.0% |
| Cc1cc2ncc(-c3cccc(Cl)c3)cn2n1 | -5.0% | i |
| Cc1ccccc1C(=O)Nc1cc(-c2ccc(Cl)cc2)nn1-c1ccccc1 | ? | ? |
| O=C(Nc1nc2c(s1)CCCC2)c1cccc(S(=O)(=O)N2CCCc3ccccc32)c1 | -24.1% | -11.7% |
| COc1cc2ccc(=O)oc2c(OC)c1OC | -1.9% | -2.0% |
| CCOC1(OCC)OC(c2ccccc2)=C(C#N)C(C=Cc2ccccc2)C1(OCC)OCC (centres undefined) | -22.8% | i |
| C=CCNc1nc(N2CCCCC2)c(C#N)c2c1CN(Cc1ccccc1)CC2 | -10.3% | nt |
| COc1ccc(C2Nc3ccccc3C(=O)N2NS(C)(=O)=O)cc1 (centres undefined) | -6.9% | -9.6% |
| COc1ccc(-c2sc3cc4c(cc3c2C#CC2(N)CCCCC2)OCO4)cc1 | ? | ? |
| COc1ccc(CCCC(=O)NC2CCCCC2C)c(C)c1 (centres undefined) | -5.4% | -6.7% |
| COc1ccc(NC(=O)Nc2ccc3c(c2)C(=O)N([C@H](C)CO)C[C@H](C)[C@@H](CN(C)C(=O)Nc2ccccc2)O3)cc1 | -5.9% | i |
| CCCCn1c(N)c(N(CC)C(=O)CCNC(=O)c2ccc(Cl)cc2)c(=O)[nH]c1=O | -8.6% | -9.2% |
| O=S(=O)(c1ccc(Br)cc1F)N1CCC(O)CC1 | 6.8% | i |
| CC(C)=NN/C(N)=N/C(=S)Nc1ccc(C)cc1 | -5.9% | i |
| CCCOC(=O)CSC1=C(C#N)C(c2ccccc2OC)C(C#N)C(=O)N1 (centres undefined) | -10.0% | -15.7% |
| O=C(c1ccccc1)N1CCN(c2ncnc3c2cnn3-c2ccccc2)CC1 | ? | -11.7% |
| C=CCNC(=S)N/N=C(\C)c1ccc(OC)cc1 | -20.6% | -21.1% |
| COc1ccc2ccccc2c1/C=N/Nc1cccc(C(=O)O)c1 | 2.9% | 6.5% |
| CC(NC(=O)Nn1cnnc1)(C(F)(F)F)C(F)(F)F | -9.1% | i |
| CC(=NCc1ccc2c(c1)OCO2)c1c(O)[nH]c(=O)[nH]c1=O | -24.4% | ? |
| CCOc1ccc(NC(=O)CC2CC(C)(C)OC2=O)cc1 (centres undefined) | -5.1% | -5.9% |
| O=c1nc2s/c(=C\c3ccc(-c4ccccc4[N+](=O)[O-])o3)c(=O)n2nc1-c1ccccc1 | -8.6% | -24.1% |
| CN1CCN(C(=O)CN(C)S(=O)(=O)c2ccc3ccccc3c2)CC1 | -1.6% | 3.3% |
| O=C(CCN1C(=O)/C(=C/c2ccccc2F)SC1=S)Nc1cccnc1 | -9.1% | i |
| CCOC(=O)c1ccc(NC(=O)c2oc(=O)c3ccccc3c2-c2ccccc2)cc1 | 0.2% | -7.7% |
| Cc1oc(-c2ccccc2Cl)[n+]([O-])c1C | -8.0% | -10.7% |
| CCc1nn(CC(=O)NC(C)CCc2ccccc2)c(=O)c2cc3occc3n12 (centres undefined) | -11.3% | -20.9% |
| CC(=O)Nc1nc(CC(C)C)cc2c1c(=O)oc1ccccc12 | 9.7% | -8.7% |
| Cc1nnc(NC(=O)CSc2nnc3scc(-c4ccc(C)c(C)c4)n23)s1 | -11.1% | -13.3% |

The list goes on.
| SMILES | VACV Venus inh | Vaccinia mCherry |
| --- | --- | --- |
| Cc1ccc(CNC(=O)Cn2c(=O)cc(C(F)(F)F)c3c(C)nn(C)c32)cc1 | 6.3% | -6.6% |
| Cc1nc(NCCc2ccccc2)sc1C(=O)O | -0.7% | 0.5% |
| COC(=O)c1cccc(Nc2nc(-c3cccnc3)nc3ccccc23)c1 | -24.0% | -15.0% |
| CN(C)c1ccc(/C=C/C=C2/C=Cc3ccccc32)cc1 | -12.6% | 1.1% |
| COc1cc(C(=O)Nc2sc3c(c2C#N)CCN(C(C)=O)C3)cc(OC)c1OC | -20.2% | -6.4% |
| CCOc1cc(-c2conc2N)cc(OCC)c1OCC | -11.7% | -21.5% |
| CN1CCN(C(=O)c2cccc(-c3ccc4nncn4c3)c2)CC1 | 5.1% | 9.7% |
| Cc1cc(=O)oc(C)c1C(=O)N1CCN(c2ccc(F)cc2)CC1 | -2.1% | -4.1% |
| COc1ccc(C2Nc3ccccc3C(=O)N2NC(C)=O)c(OC)c1 (centres undefined) | -5.3% | -10.0% |
| Cc1ccc(Nc2nnc(-c3ccc(C)c(S(=O)(=O)N4CCN(C)CC4)c3)c3ccccc23)cc1 | ? | ? |
| COc1ccccc1Cc1c(-c2ccc(F)cc2)nc2ccc(Br)cn12 | -3.7% | -19.6% |
| COC(=O)CNC(=O)Cn1cnc2sc(C)c(S(=O)(=O)N3CCC(C)CC3)c2c1=O | -6.4% | -7.0% |
| C/C(=N\NC(=O)C(=O)Nc1cccc(Cl)c1C)c1ccncc1 | -0.1% | -10.7% |
| CCC(C)(C)NC(=O)C(c1ccc(F)cc1)N(Cc1ccco1)C(=O)c1snc(C(N)=O)c1N (centres undefined) | -9.6% | -14.7% |
| COc1ccc(S(=O)(=O)N2CCOCC2)c(Cl)c1Cl | -15.1% | i |
| CCOC(=O)COc1cc(OCC(=O)OCC)c2c3c(c(=O)oc2c1)CCCC3 | -7.6% | i |
| COc1cccc(NC(=O)COC(=O)c2ccc(F)cc2F)c1 | -4.4% | -9.7% |
| COc1ccc(Cn2c(SCc3ccc(C(=O)NC(C)c4ccccc4)cc3)nc3cccnc32)cc1 (centres undefined) | -16.7% | -11.4% |
| CC1=C(C)C(c2ccccc2)NC(=S)N1 (centres undefined) | -1.8% | -13.4% |
| Cc1occc(=O)c1OCc1c(F)cccc1Cl | -3.6% | i |
| CCn1c(=N)n(CC(=O)c2ccc(Cl)c(Cl)c2)c2ccccc21 | -9.3% | ? |
| CC1CS(=O)(=O)CCN1N=Cc1ccc([N+](=O)[O-])o1 (centres undefined) | -10.9% | -16.3% |
| Cc1cc(C)n2nc(SCCOc3ccc(F)cc3)nc2n1 | -15.5% | -11.3% |
| O=C(OCCN1C(=O)c2ccccc2C1=O)c1cc(S(=O)(=O)N2CCOCC2)ccc1Cl | -24.6% | nt |
| Cn1c(SCc2ccccc2C#N)nnc1-c1ccncc1 | 5.0% | -11.8% |
| CC(=O)N1CCOc2ccc(S(=O)(=O)Nc3ncccc3C)cc21 | -0.3%[7.34 µM] | -4.7%[7.34 µM] |
| COc1ccc(C(c2nnnn2C2CCCC2)N2CCN(c3ccccc3)CC2)cc1 (centres undefined) | -15.6% | -4.5% |
| Cn1c(N)c(C(C[N+](=O)[O-])c2ccccc2Cl)c(=O)n(C)c1=O (centres undefined) | -11.4% | -6.1% |
| CCOC(=O)/C(C#N)=C/c1cc(C)n(-c2ccc(C)cc2)c1C | -25.5% | -11.3%[1.46 µM] |
| O=C(NCCNc1cc(Cl)ccc1[N+](=O)[O-])c1ccco1 | -14.0% | -16.3% |
| COc1ccc2c(c1)CCc1c(C(=O)N3CC4(C)CC3CC(C)(C)C4)noc1-2 (centres undefined) | -16.9% | -5.6% |
| C=CCn1c2ccccc2c(=O)c2cc(C#CC[C@@H](C)O)ccc21 | -21.5% | ? |
| COC(=O)c1ccccc1NC(=O)Cn1c(=O)n(Cc2ccc(C(=O)NCc3ccc4c(c3)OCO4)cc2)c(=O)c2ccccc21 | -0.2% | -2.1% |
| C/C(=N\NC(=O)c1ccc([N+](=O)[O-])cc1)c1cc2ccccc2oc1=O | -26.6% | ? |
| CCOC(=O)N1CCN(S(=O)(=O)c2ccc(Br)s2)CC1 | -7.2% | nt |
| CC1=C(C(=O)Nc2cccc(C(=O)NCc3ccccc3C)c2)SCCO1 | 0.0%[7.34 µM] | 16.7%[7.34 µM] |
| CCN(CC)S(=O)(=O)c1cc(C(=O)Nc2cc(S(=O)(=O)N3CCOCC3)ccc2N2CCCC2)ccc1F | -11.8% | -3.8% |
| COC(=O)NNC(=O)c1ccc(C)c(Br)c1 | -9.0% | -13.4% |
| COc1ccc(C(=O)N2CCCCC2c2cc(C(=O)NCc3ccc(Cl)c(Cl)c3)no2)cc1 (centres undefined) | -17.7% | -26.4% |
| COCCN(C(=O)COC(=O)Cc1cccc2ccccc12)c1c(N)n(Cc2ccccc2)c(=O)[nH]c1=O | -7.8% | -11.9% |
| O=C(COC(=O)CCCN1C(=O)c2cccc3cccc(c23)C1=O)NC1CCS(=O)(=O)C1 (centres undefined) | -11.3% | i |
| Cc1cc2oc(=O)cc(-c3ccccc3)c2c(C)c1-c1ccc(C#N)cc1 | -11.8% | i |
| COc1ccc(C(O)(CCN2CCCCC2)C2CCCCC2)cc1 (centres undefined) | -11.1% | -12.7% |
| COc1cc(OC)c(NC(=O)CCc2nc(C3=CCN(Cc4cccc(Cl)c4)CC3)no2)cc1Cl | -14.4% | -17.5% |
| CCc1cc2c(=O)c(-c3ccc4c(c3)OCCO4)coc2c(CN2CCCCC2C)c1O (centres undefined) | -5.3% | -22.1% |
| O=C(NCc1ccncc1)c1cccc(S(=O)(=O)Nc2ccc(F)cc2)c1 | -21.6% | -17.8% |
| Cc1c(C(=O)c2cccc([N+](=O)[O-])c2)c2ccccn2c1CCC#N | -7.5% | -17.5% |
| O=C(CCCNC(=O)c1ccc(Cl)cc1)Nc1ccccc1F | 1.5% | -6.0% |
| Cc1n[nH]c(=O)c2c(NC(=O)COC(=O)c3cccc(OC(F)F)c3)oc(C)c12 | -22.5% | -9.2% |
| O=c1c(-c2cccs2)nc2ccccc2n1C(c1ccccn1)c1nc2ccccc2[nH]1 (centres undefined) | -4.8% | ? |
| Cc1ccc(NC(=O)CSc2nc(=O)n(CCCN(C)C)c3c2CCC3)c(C)c1 | -14.5% | -5.0% |

Screens as filed in PubChem BioAssay.
